Screening results (PubChem BioAssay)
B2AR ag – human beta-2 adrenergic receptor agonism by FAP | Am2.2-beta2AR cells, FAP receptor internalization, flow cytometry; reference of the scale not given here | 0.43% of 340,000 active | response, % (concentration not given with the values) | AID 504454;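 active = response above a set limit, near 3 SD of response in nonfluorescent compounds, cut at about 42% in these data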;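 also: stock transfer was 100 nL into about 11 µL; a reference agonist was the positive control; negative values mostly stem from fluorescent compounds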
Target sequence (P07550 whole entry, looked up): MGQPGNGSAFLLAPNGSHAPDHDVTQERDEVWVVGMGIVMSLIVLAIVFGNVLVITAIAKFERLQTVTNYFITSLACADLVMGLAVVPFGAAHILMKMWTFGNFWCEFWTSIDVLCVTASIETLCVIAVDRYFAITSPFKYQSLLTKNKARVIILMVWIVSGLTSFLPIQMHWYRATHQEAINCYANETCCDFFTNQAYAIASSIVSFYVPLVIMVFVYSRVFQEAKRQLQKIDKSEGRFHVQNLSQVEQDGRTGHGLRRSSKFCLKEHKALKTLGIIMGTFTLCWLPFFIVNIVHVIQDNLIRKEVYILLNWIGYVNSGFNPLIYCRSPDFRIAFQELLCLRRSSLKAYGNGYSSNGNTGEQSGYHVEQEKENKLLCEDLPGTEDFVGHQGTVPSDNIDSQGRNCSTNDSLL
UCH37 inh – inhibitors of human deubiquitinating enzyme UCH37; purified proteasome/UCH37, Ub-AMC cleavage fluorescence; AID 588478; inhibition, % (concentration not given with the values); 0.33% of 330,000 active;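 active = mean of two replicates above 20%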;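 also: 0% = compound-free wells with enzyme and 100% = wells lacking proteasome; stock transfer was 100 nL into about 20 µL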
Target sequence (Q9Y5K5 whole entry, looked up): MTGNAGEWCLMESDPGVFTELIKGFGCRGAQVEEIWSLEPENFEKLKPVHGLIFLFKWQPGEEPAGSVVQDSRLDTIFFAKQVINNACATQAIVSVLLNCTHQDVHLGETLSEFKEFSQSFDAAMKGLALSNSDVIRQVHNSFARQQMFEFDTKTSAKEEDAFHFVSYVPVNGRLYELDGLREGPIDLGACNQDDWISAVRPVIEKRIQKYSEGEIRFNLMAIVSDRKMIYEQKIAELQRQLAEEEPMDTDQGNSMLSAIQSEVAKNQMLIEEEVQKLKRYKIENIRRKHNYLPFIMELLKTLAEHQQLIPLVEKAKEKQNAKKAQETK
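Assay system: Proteasome-bound UCH37. Buffer or medium: pH 7.4 Tris-HCl (50 mM) with ovalbumin, ATP-MgCl2, DTT. Incubation: 30 min preincubation with enzyme, 25 min cleavage at room temperature. Measured by: fluorescence, ex 355 nm, em 460 nm. Read-out basis: percent inhibition. Control set: wells without proteasome as full block, compound-free enzyme plus substrate as uninhibited.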
T cruzi repl – T. cruzi replication inhibition; T. cruzi beta-gal in NIH3T3, luminescence, 90 h; inhibition, % (test concentration not listed); 1.4% of 300,000 active; AID 1885;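 active = mean inhibition across valid replicates above about 55%, limit read from the data; inconclusive = mean below that limit but half or more replicates reach it; inactive = mean below it, under half of replicates reach it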;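 also: signal also drops with host cell toxicity which is not excluded here; 0% = plate median of DMSO wells and 100% = zero luminescence signal; higher percent means less beta-gal luminescence so fewer parasites; stock transfer was 50 nL into about 50 µL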
Beta apoptosis – blocks beta cell apoptosis; 0.8% of 300,000 active; INS-1E cytokine-induced death, ATP luminescence, 48 h; percent of positive-control rescue, neutral wells zero; protection from apoptosis, % (concentration not given with the values);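 active = all replicates at 75% or more, or half of them and the mean; inconclusive = half reach 75% but not the mean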;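 also: 0% = cytokine-treated negative control wells and 100% = positive control rescue; higher means more ATP so stronger rescue from cytokine killing; wells of about 40 µL received 100 nL stock; the first replicate is given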
RanGTP-Imp inh – inhibitors of RanGTP-importin-beta interaction, primary screen, biochemical, FRET, CFP-Ran, YFP-importin-beta, homogeneous. 1.1% of 300,000 active. inhibition, % (no concentration beside the values). cell-free CFP-Ran/YFP-importin-beta FRET ratio. AID 2216;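 active = most replicates above 15%; inconclusive = exactly half above 15%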;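 also: 0% = DMSO wells and 100% = Ran loaded with GDP instead of GTP; wells of about 40 µL received 100 nL stock; the first replicate is given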
LANA-H2B inh – blocks KSHV LANA binding to histone H2A/H2B; inhibition, % (test concentration not listed); Q9QR71; cell-free LANA-H2A/H2B peptide, fluorescence polarization; AID 2629; 0.6% of 320,000 active; in the data active = inhibition mostly above about 10%, no sharp cut-off; inactive = mostly below about 6.7%;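 also: stock transfer was 7.5 nL into about 10 µL; 0% = median of vehicle wells and 100% = median of positive control wells; one replicate is shown; the record names a cut of 25% in any replicate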
A1 inh – inhibitors of the anti-apoptotic protein A1, read as caspase activation | MEF A1-2A-BIM cells, Caspase-Glo 3/7 luminescence, 3 h; percent of clofoctol response, vehicle zero | caspase activation, % (concentration not given with the values) | 0.066% of 330,000 active | AID 2462;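 active = over half of replicate activation scores above 10%, or exactly half above 10 with the replicate mean above 10; inconclusive = replicate mean below 10 yet half the replicates above 10; inactive = over half of replicates below 10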;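 also: wells of about 30 µL received 50 nL stock; many hits fall short of the cut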
Calb FLC – affects C. albicans growth with fluconazole; C. albicans CaCi-2 (fluconazole-resistant clinical isolate) + fluconazole, Alamar Blue growth, 48 h; growth inhibition, % (no concentration beside the values); 0.57% of 300,000 active; AID 1979;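 active = most replicates above 75%; inconclusive = exactly half above 75%; inactive = most below 75%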;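 also: all wells also contain fluconazole at 8 µg/ml as a sub-toxic cotreatment; 0% = median of DMSO wells and 100% = median of geldanamycin control wells; wells of about 8 µL received 7.5 nL stock; the first replicate is given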
* = called active by the depositor; i = inactive; ? = inconclusive; / = no result given.

canonical_smiles	B2AR ag	UCH37 inh	T cruzi repl	Beta apoptosis	RanGTP-Imp inh	LANA-H2B inh	A1 inh	Calb FLC
CN(NS(=O)(=O)c1cccs1)c1ncc(C(F)(F)F)cc1Cl	4.0	2.2	-9.2	1.6	-1.5	-2.1	-0.6	-6.0
CCN(C(=O)c1ccco1)c1nnc(-c2ccc(OC)cc2)s1	-18.3	-28.1	-4.2	-2.4	6.4	-4.6	-2.0	0.1
CCCC[C@@H]1CNC(=S)N1CCc1cccc2ccccc12	14.3	2.0	-2.3	-0.9	-0.4	-3.8	-0.1	-8.1
O=C(COC(=O)/C=C/c1cccc(F)c1)NNC(=O)c1ccccc1	-4.2	1.5	-18.7	-9.8	-2.2	-4.0	0.1	-6.0
Cc1cc(C)c(NC(=O)CNC(=O)c2cc(C3CC3)nn2-c2ccccc2)c(C)c1	6.9	3.4	/	-0.2	/	0.9	-0.9	/
O=C(NCCCN1CCOCC1)C1CCN(S(=O)(=O)c2cccc(Cl)c2Cl)CC1	-4.6	-0.4	-15.5	-1.8	/	3.2	0.1	-1.1
CCOC(=O)C1CCN(C(=O)CCc2c(C)nc3cc(-c4ccccc4)nn3c2C)CC1	15.1	-16.2	8.6	0.5	7.4	-8.8	0.5	-1.9
CCOc1cc(/C=C/c2nc3cc(C)c(C)cc3s2)ccc1OCC(=O)N1CCOCC1	-8.1	i	10.9	0.9	-3.9	2.6	0.2	-2.2
O=C(Nc1ccncc1)Nc1ccccc1Cl	-1.6	0.0	30.9	3.1	-0.1	-1.8	-12.0	-2.1
COc1ccc(/C=C/C(=O)N2CCOCC2)cc1OC	-2.6	-6.1	-8.5	/	-2.4	1.7	0.1	18.1
CCN(C(=O)CN1CCN(C)CC1)c1cccc2ccccc12	-1.7	4.2	20.6	-6.1	2.1	-0.3	0.1	-0.2
O=C(/C=C\c1ccc2c(c1)OCO2)NC1(C(=O)Nc2ccc3c(c2)OCO3)CCCCC1	-1.1	3.5	4.7	4.4	-1.9	-5.0	0.6	-1.5
O=C(COc1ccc(Cl)c(Cl)c1)NC1CCS(=O)(=O)C1 (stereo not given)	-3.0	5.3	/	3.0	/	/	0.1	/
C[C@@H]1CN([C@@H](C)CO)C(=O)c2cccc(NS(=O)(=O)c3ccc(F)cc3)c2O[C@H]1CN(C)C(=O)NC1CCCCC1	-4.6	2.2	/	-0.3	/	6.7	0.7	/
O=C(NC1=NCCS1)Nc1ccccc1	1.2	-0.2	-0.5	-5.2	-2.9	1.5	-5.7	-10.0
COc1ccc(S(=O)(=O)N(C)CC(=O)Nc2c(F)cccc2F)cc1	13.3	0.6	-9.7	-6.3	-1.8	-1.0	0.3	13.3
CCn1cc(C(=O)O)c(=O)c2cnc(N3CCN(C(=S)Nc4ccccc4C(F)(F)F)CC3)nc21	3.7	1.1	-8.8	20.9	-2.2	-1.5	-0.1	-11.0
Cn1c(=O)[nH]c(=O)c2c1nc(N(CCO)Cc1ccccc1)n2Cc1ccccc1Cl	5.2	1.3	9.1	2.5	-7.7	-0.6	-0.2	-20.7
COCCn1c(SCC(=O)Nc2ccc(OC)c(S(N)(=O)=O)c2)nc2ccccc21	2.8	0.3	-0.7	-3.9	-3.6	-6.6	0.2	4.5
O=C(CN1C(=O)C2CCCCC2C1=O)Nc1nccs1 (stereo not given)	9.1	1.3	0.4	1.7	-1.8	1.3	0.4	?
COc1ccc([N+](=O)[O-])c(OC)c1C(=O)Nc1ccc(F)cc1F	5.2	3.1	-9.2	-7.6	3.9	0.3	0.1	-5.0
COc1ccc(C2CC(c3ccccc3)Nc3nc(NS(C)(=O)=O)nn32)cc1 (stereo not given)	9.4	0.9	-10.3	-11.1	-2.5	-2.1	1.4	9.3
O=C(NNS(=O)(=O)c1ccc(F)cc1)c1ccc(S(=O)(=O)N2CCCCC2)cc1	3.9	1.2	-1.7	0.8	8.4	/	-0.5	-7.5
CCOc1ccccc1NC(=O)C(=O)NCC1CCCN1CC (stereo not given)	-10.6	0.1	-7.2	-4.9	2.2	-9.9	-0.3	-5.2
CCOC(=O)c1sc2nc(CC(=O)OC)nc(NCCN3CCOCC3)c2c1C	5.7	-10.0	6.5	/	5.4	/	/	-0.7
Clc1nc(Cl)nc(-c2cn(-c3ccccc3)c3ccccc23)n1	-0.5	-105.6	5.2	-2.3	-3.0	-0.1	0.8	-12.5
O=C(OCC(=O)N1CCc2ccccc21)C1=COCCO1	6.0	1.6	-19.8	-1.8	1.3	0.9	-0.1	7.0
CCn1c(SCC(=O)NCCc2ccc(Cl)cc2)nnc1-c1cccs1	-11.6	1.3	5.7	0.8	-2.6	2.2	0.1	1.3
COc1ccc(NC(=O)CNC(=O)c2sc3ccccc3c2Cl)c(OC)c1	-4.0	1.0	/	-1.8	/	-0.7	0.9	/
CC(=O)NCCC(=O)N1CCCC(N(C)CCc2ccccc2)C1 (stereo not given)	-7.4	2.0	-6.0	-4.4	3.2	-1.1	1.4	9.7

Random excerpt: 4 entries already listed.
canonical_smiles	B2AR ag	UCH37 inh	T cruzi repl	Beta apoptosis	RanGTP-Imp inh	LANA-H2B inh	A1 inh	Calb FLC
CN(NS(=O)(=O)c1cccs1)c1ncc(C(F)(F)F)cc1Cl	4.0	2.2	-9.2	1.6	-1.5	-2.1	-0.6	-6.0
COc1ccc(S(=O)(=O)N(C)CC(=O)Nc2c(F)cccc2F)cc1	13.3	0.6	-9.7	-6.3	-1.8	-1.0	0.3	13.3
CCOc1cc(/C=C/c2nc3cc(C)c(C)cc3s2)ccc1OCC(=O)N1CCOCC1	-8.1	i	10.9	0.9	-3.9	2.6	0.2	-2.2
CCn1cc(C(=O)O)c(=O)c2cnc(N3CCN(C(=S)Nc4ccccc4C(F)(F)F)CC3)nc21	3.7	1.1	-8.8	20.9	-2.2	-1.5	-0.1	-11.0

Next section.
canonical_smiles	B2AR ag	UCH37 inh	T cruzi repl	Beta apoptosis	RanGTP-Imp inh	LANA-H2B inh	A1 inh	Calb FLC
COc1ccc2oc(-c3ccccc3)c(C(=O)N(C)C)c2c1	-5.3	-61.1	-15.6	-12.6	3.1	-2.9	-0.1	3.5
CN(C)CCCn1c2c(c(SCC(=O)Nc3ccc4c(c3)OCO4)nc1=O)CCC2	-3.2	6.9	28.9	/	1.3	-1.4	-0.8	2.8
COc1cc(NC(=O)COC(=O)CC(NC(C)=O)c2ccccc2)cc(OC)c1 (stereo not given)	-3.3	3.0	-11.3	-7.3	-5.4	0.7	0.1	3.6
N#Cc1c(-c2ccc(F)cc2)cc(C2CC2)nc1SCC(=O)c1cccs1	14.2	2.6	7.4	-3.2	3.6	-3.5	-0.1	-0.7
CCN(CC(=O)NCc1cccs1)C(=O)c1ccc(C)o1	-1.4	0.3	/	0.5	/	0.2	3.1	/
O=C1c2cc(Br)ccc2N(Cc2ccc(Br)cc2)S(=O)(=O)C1c1cc(Cl)c(Cl)cc1[N+](=O)[O-] (stereo not given)	11.4	/	/	9.2	/	2.6	-0.8	/
NC(=S)Nc1cccc(O)c1	-1.3	0.2	-10.4	-0.5	-0.6	-2.5	-0.9	4.9
O=C(NCc1ccccn1)C(=O)NCC1OCCN1S(=O)(=O)c1ccc([N+](=O)[O-])cc1 (stereo not given)	-5.1	0.9	19.3	-7.4	6.0	-1.0	0.2	1.1
Cn1cccc1C(=O)NC(=O)CSc1nnc(C2CC2)n1-c1ccccc1	-1.6	-0.2	-3.9	2.4	0.3	-3.7	0.0	8.3
Cc1ccc(CCNC(=O)C2CCN(S(=O)(=O)c3c(C)nn(C)c3C)CC2)cc1	-14.7	5.3	8.5	-4.7	-12.2	0.8	-1.0	-12.9
CCC(Oc1ccccc1)C(=O)Nc1cc(C(F)(F)F)ccc1N1CCOCC1 (stereo not given)	-7.1	2.1	3.2	-2.3	/	-2.5	-0.2	3.1
COC(=O)[C@@](C)(O)C1(C(=O)SC(C)(C)C)CC1	-1.1	-4.0	-15.7	/	-2.8	-1.7	-1.5	3.5
CC1CC(C)(C)CC2(C1)NC(=O)N(CC(=O)N(Cc1ccccc1)c1ccccc1)C2=O (stereo not given)	4.7	0.8	10.3	-2.2	-5.1	0.0	0.9	-0.1
CC(Oc1ccc([N+](=O)[O-])cc1)C(=O)NCCCN1CCOCC1 (stereo not given)	2.6	0.8	-7.5	0.7	1.9	-2.5	1.8	2.9
C[C@@H]1CCCCCCCCC(=O)OCCN(C(=O)OC(C)(C)C)[C@H](C)CCCCCCCCC(=O)OCCN(C(=O)OC(C)(C)C)[C@H](C)CCCCCCCCC(=O)OCCN1C(=O)OC(C)(C)C	/	2.8	/	-14.0	/	4.2	-0.4	/
C=CCCC(=O)NC1CC(C)(C)Cc2c1cnn2-c1ccc(OC)cc1 (stereo not given)	2.6	3.8	8.5	/	3.0	2.7	0.3	16.3
NC(N)=N/N=C/c1cccc([N+](=O)[O-])c1O	-5.2	/	34.1	-6.7	/	-1.2	?	?
Nc1ccc(C(=O)N2CCN(S(=O)(=O)c3ccc4c(c3)OCCCO4)CC2)cc1[N+](=O)[O-]	1.0	1.4	/	-4.7	/	2.1	1.2	/
Cc1nnc(NC(=O)c2c(F)c(F)c(F)c(F)c2F)s1	-1.0	4.7	30.7	-5.2	3.8	-4.5	-0.1	1.8
C=CCn1c(-c2cccnc2Cl)nc2cc(Cl)c(Cl)cc21	1.6	-26.5	31.2	2.4	?	8.6	-0.2	-8.5
Cc1ccc(S(=O)(=O)NC(C)(C)C)cc1C(=O)OCC(=O)N1CCCC1=O	-2.5	3.4	-10.9	2.0	2.7	4.7	1.1	0.9
Cc1ccccc1NC(=O)c1cccc(N2C(=O)C3CCC(C)CC3C2=O)c1 (stereo not given)	3.4	2.4	2.4	-4.0	?	-1.3	-0.1	7.6
NC(=O)c1ccccc1N=Cc1ccccn1	5.1	-174.4	-2.9	-4.6	-1.6	1.1	0.0	24.4
COc1ccc([N+](=O)[O-])cc1NC(=O)Nc1ccccc1	-8.3	1.5	-1.3	-7.5	3.4	/	0.5	35.3
O=C(CN1CCN(c2ccccn2)CC1)N1CC(O)CO1 (stereo not given)	-11.0	2.5	-1.5	-9.3	6.6	-0.2	1.6	21.4
CC(C)Oc1cccc(C(=O)C2CCCN(C(=O)CCn3cnnn3)C2)c1 (stereo not given)	-4.8	0.9	-0.5	-4.4	-13.6	-7.8	0.6	?
Cc1ccc(C)c(N(C(=O)CNC(=O)c2ccco2)C(C(=O)NC2CCCC2)c2ccncc2)c1 (stereo not given)	-4.7	5.2	-17.4	-1.4	4.0	-1.5	-0.5	11.7
